VACV Venus inh: vaccinia inhibition (Venus reporter); Vaccinia virus Venus reporter expression, fluorescence; Potency, µM (top dose mostly 36.5 µM), for the others: top-dose activity change, negative = inhibition, usual class: inhibitors; 0.46% of 330,000 active; AID 720580; active means well fitted inhibition curve with a large enough effect; inconclusive means small, poorly fitted or top-dose-only effect; inactive means no such curve, though single readings can be large or run the other way; tested in A549 cells; also: nearly all actives have a fitted effect of over 30% in size; inactives centre near -10
Vaccinia mCherry: inhibitors of vaccinia virus infection (mCherry reporter signal) | Vaccinia virus mCherry reporter infection, fluorescence; about a quarter of the inactives have no number | Potency, µM (titrated, usually from 36.5 µM), inactives show top-dose activity change, negative = inhibition, most hits filed as inhibitors | 0.63% of 310,000 active | AID 720579; active = well fitted inhibition curve with a large enough effect; inconclusive = small, poorly fitted or top-dose-only effect; inactive = no such curve, though single readings can be large or run the other way; tested in A549 cells; also: nearly all actives have a fitted effect of over 35% in size; inactives centre near -10
The depositor's hits bear a star; i = inactive; ? = inconclusive; nt = not tested or not shown; & = joins results of further samples; [ ] = remark or other dose. % is scaled to controls: 0 for no effect and ±100 for the full control effect; potency is read from the fitted curve at half-maximal effect.

SMILES | VACV Venus inh | Vaccinia mCherry
COc1ccc2c(CC(=O)NNC(=O)c3ccc(O)cc3)coc2c1 | 11.8% | i
CCNC(=O)c1ccccc1CCc1ccccc1 | -17.8% | i
CN(CC(O)COCc1ccccc1F)C1CCCCC1 (stereo not drawn) | -21.9%[7.34 µM] | i[7.34 µM]
CCOc1ccccc1NC(=O)N1CCCn2nc(C)cc21 | -13.4% | -19.6%
Cc1noc(C)c1CSc1nc2[nH]ncc2c(=O)n1-c1ccccc1 | ? | ?
Cc1ccc(S(=O)(=O)c2cn(CC(=O)Nc3ccccc3)c3cc4c(cc3c2=O)OCO4)cc1 | -12.4% | -6.8%
C=CCNc1nc(N2CCOCC2)nc(N2CCOCC2)n1 | -15.2% | i
COc1cccc(C(=O)Nc2cc(-c3cn4cccnc4n3)ccc2C)c1 | -4.4% | i
O=S(=O)(/N=C(/Nc1cccc2ccccc12)c1ccccc1)c1cccs1 | -13.1% | nt
Cc1cc(N2CCN(C)CC2)nc2ccc(NC(=S)NCCCN3CCc4ccccc4C3)cc12 | -27.3% | -26.0%
CC(CCc1ccccc1)NC(=O)C(=O)N1CCOCC1 (stereo not drawn) | 4.2% | -1.3%
COc1ccc(NC(=O)C2(C)CCN2Cc2cccc(OC)c2OC)cc1OC (stereo not drawn) | -5.7% | i
CN(CC(O)COc1ccc(S(=O)(=O)N2CCOCC2)cc1Cl)C1CCCCC1 (stereo not drawn) | -5.6% | ?
Cn1nc(C(=O)N2CCc3ccccc32)c2ccccc2c1=O | -12.6% | i
COCC(C)n1c(C)cc(C(=O)COC(=O)c2ccc3c(c2)NC(=O)CS3)c1C (stereo not drawn) | -9.5% | ?
Cc1ccccc1-n1c(SCC(=O)NC2CC2)nc2ccccc2c1=O | -13.1% | -29.2%
O=C(Nc1cccc(S(=O)(=O)Nc2ccc(SC(F)F)cc2)c1)C1CCC1 | -8.5% | -12.9%
CC1(C)CC(=O)C=C(c2ccc(COC(=O)/C=C/c3ccccc3)cc2)C1=O | -19.7% | -4.7%
COc1cccc(OC)c1C(=O)Nc1ccc(S(=O)(=O)N2CCCCC2)cc1 | -26.8% | -19.8%
O=C(c1cccc(C(F)(F)F)c1)N1CCCC1 | -4.5% | -13.4%
COc1ccc2[nH]c(=O)cc(C(=O)O)c2c1 | -16.4% | 1.6%
CC(C)(C)c1ccc(C(=O)c2c[nH]c(C(=O)O)c2)cc1 | -11.7% | i
COc1ccccc1NC(=O)Cn1c(C)cc(C)c(C#N)c1=O | -2.6% | 11.7%
CC(C)[C@H](NC(=O)c1ccccc1)C(=O)OCC(=O)N1CC2(C)CC1CC(C)(C)C2 (stereo partly drawn) | -3.1% | -7.1%
Cc1nc(N2CCN(S(=O)(=O)c3cccc4nonc34)CC2)c2c3c(sc2n1)CCCC3 | -11.4% | -11.4%
O=C(NCc1ccc(N2CCCC2=O)cc1)c1cccc(Cl)c1 | -0.8% | -5.4%
COc1ccc(OCCCC(=O)N2CCCc3ccccc32)cc1 | -7.5% | nt
COc1ccc(N2C(=O)CSC2c2cccs2)cc1 (stereo not drawn) | -0.8% | -6.4%
CCC(C)NC(=O)Cn1ccc2cc(S(=O)(=O)N3CCCCCC3)ccc21 (stereo not drawn) | -10.3% | -9.9%
O=C(NC1=NCCS1)c1ccc(OCC2CCCO2)cc1 (stereo not drawn) | -11.2% | -14.0%
CCOc1ccc(CNC(=O)c2ccc(NC(=O)c3nsc4ccccc34)cc2)cc1 | -10.7%[7.34 µM] | -2.4%[7.34 µM]
CC(C)=CCN1CCN(CCCn2cccn2)CC1CCO (stereo not drawn) | -14.6% | i
CCC(C)NCCOCCOc1ccc(Cl)c(C)c1C (stereo not drawn) | ? | -13.4%
O=C(CCN1CCCCC1)NNC(=O)C12CC3CC(CC(C3)C1)C2 | -13.3% | -6.2%
COc1ccc(S(=O)(=O)NC(C)C)cc1-n1cnnn1 | 2.7%&-4.8% | 9.7%&-5.6%
COc1cc2[nH]c(C(=O)Nc3ccc4c(c3)OCCO4)cc2c(OC)c1OC | -11.4% | -9.0%
COc1cccc(C2N(c3ccc(Cl)cc3)C(=O)C3CCCN32)c1 (stereo not drawn) | -2.0% | -13.0%
O=C(Cn1ccsc1=NC(=O)C(F)(F)F)c1ccccc1 | 8.1% | nt
Cc1ccc(OCc2nc(C#N)c(NCc3ccco3)o2)cc1 | -13.6% | -18.4%
Cc1oc2c(C)c(O)ccc2c(=O)c1N1C(=O)c2ccccc2C1=O | -1.4% | -11.5%
CCC(C)c1ccccc1N1CC(C(=O)N2CCN(S(=O)(=O)c3cccc([N+](=O)[O-])c3)CC2)CC1=O (stereo not drawn) | -16.7% | -1.8%
Cc1ccc(S(=O)(=O)CC(=O)Nc2nc3c(C)cc(C)cc3s2)cc1 | -2.7% | -13.9%
Cc1onc(-c2ccccc2Cl)c1C(=O)NNC(=O)c1ccc(F)cc1 | -4.7% | i
COCc1oc2ccc(NS(=O)(=O)c3ccc(C)cc3)cc2c1C(=O)OC | -14.9%[7.34 µM] | -16.5%[7.34 µM]
CCOC(=O)c1c(NC(=O)C2COc3ccccc3O2)sc2c1CCN(Cc1ccccc1)C2 (stereo not drawn) | -1.5% | -13.2%
O=C(CSc1nnc(-c2cccnc2)n1-c1ccccc1)Nc1ccccc1 | -5.5% | i
COc1ccc(NC(=O)CN(C)C(=O)c2ccc(NS(=O)(=O)c3cccc([N+](=O)[O-])c3)cc2)cc1 | -1.3% | -2.1%
COc1ccc(NC(=O)CN(C)C(=O)c2cccc(S(=O)(=O)N3CCN(c4ccccc4)CC3)c2)cc1 | -11.0% | -23.4%
CC(=O)c1ccc(NC(=O)C2CCN(c3nnc(C)c4c(C)n(-c5ccccc5)nc34)CC2)cc1 | ? | -24.5%
Cc1onc(-c2ccccc2Cl)c1C(=O)N(C)C1CCCCC1 | -24.8% | ?
CCc1ccc(CNC(=O)CN2C(=O)CCn3nc(-c4cn(C)c5ccccc45)cc32)cc1 | -7.7% | -16.6%
Cc1ccccc1-c1nnc(SCCC(=O)N2CCOCC2)o1 | -9.9% | i
CCOCCCn1c(=N)c(C(=O)NCC2CCCO2)cc2c(=O)n3cccc(C)c3nc21 (stereo not drawn) | 9.8% | 10.8%
COc1ccc(/C=C/c2c([N+](=O)[O-])c(=O)n(C)c(=O)n2C)cc1 | -4.2% | -14.1%
COc1ccc(N(CC(=O)NCc2ccc3c(c2)OCO3)S(=O)(=O)c2ccc(O)c(C(=O)O)c2)cc1 | -11.4% | -14.0%
Cc1cc[n+](C(C)C(=O)c2ccc(-c3ccccc3)cc2)cc1 (stereo not drawn) | -17.1% | -29.6%
CCc1cccc(NS(=O)(=O)c2ccc3c(c2)CCC(=O)N3)c1 | -9.9% | i
CCC(C)NC(=O)CN1C(=O)c2cccnc2Oc2ccc(C)cc21 (stereo not drawn) | -1.3% | -13.6%
CCOc1ccc(NC(=O)CSc2nc(N)c(-c3ccccc3)c(=O)[nH]2)cc1 | 1.8% | 4.3%
O=C(NC1CCCCC1)C(c1ccc(F)cc1)N(Cc1ccccc1)C(=O)CN1C(=O)c2ccccc2S1(=O)=O (stereo not drawn) | -12.5% | -16.3%

Continuation.
SMILES | VACV Venus inh | Vaccinia mCherry
COc1ccc(C)cc1N(C)C(=O)c1c(C)oc2ncnc(N3CCOCC3)c12 | -7.9% | -13.6%
CCc1nc2ccc(C(=O)NC3CCN(Cc4ccccc4)CC3)cn2c1N(C)Cc1ccc(N(C)C)cc1 | -13.6% | 15.5%
Cc1c(NC(=S)NC(=O)c2ccccc2)c(=O)n(-c2ccccc2)n1C | -2.2% | -7.2%
O=C(Cc1ccccc1)NNS(=O)(=O)c1ccc(F)cc1 | -10.7% | -15.5%
CC(NC(=O)COc1ccccc1)C(=O)N1CCN(c2ccc(F)cc2)CC1 (stereo not drawn) | -7.2% | i
CCSc1nnc(NC(=O)Cc2ccccc2OC)s1 | 17.2% | 12.7%
CN1CCc2c(sc3c2C(=O)NC(c2cn(Cc4ccccc4)c4ccccc24)N3)C1 (stereo not drawn) | -15.1% | -18.7%
COc1ccc(N2CCN(c3ccc(NC(=O)c4ccc5c(c4)OCO5)cc3C#N)CC2)cc1 | -7.7% | nt
CCn1c(CN2C(=O)CSc3ccccc32)n[nH]c1=S | -5.3% | i
COc1ccc(-n2c(=O)c3ccccc3n(Cc3cccc(C)c3)c2=O)cc1 | -1.3% | -1.1%
CCOC(=O)c1[nH]c2c(c1Cc1ccccc1C)C(=O)CC(c1ccccc1)C2 (stereo not drawn) | -16.3% | -12.8%
CCOC(=O)c1cnc2c(cnn2C)c1NCCCn1ccnc1 | -10.8% | i
COc1ccc(OC)c(NC(=O)C(=O)NCCC2=CCCCC2)c1 | -12.6% | -1.0%
O=C(NC(c1ccc(-c2ccccc2)cc1)c1cnccn1)C1CCN(CCCOc2ccccc2)CC1 (stereo not drawn) | -21.8% | ?
COc1cc2c(cc1NC(=O)/C=C/c1ccccc1)oc1ccccc12 | -10.8% | -4.8%
CC(C)n1cnc2c(N(C)c3cccc(Cl)c3)nc(N(CCO)CCO)nc21 | ? | i
O=c1[nH]c(=O)c2[nH]c(=S)n(-c3ccccc3)c2[nH]1 | -1.9% | i
COC(=O)CNC(c1ccccc1)c1cc(C)ccc1NC(=O)CNC(=O)OCc1ccccc1 (stereo not drawn) | ? | -27.6%
COc1ccc(NC(=O)Cn2c(=O)n(-c3cccc(C)c3)c(=O)c3c2c2cc(C)ccc2n3C)cc1Cl | -13.5% | -13.3%
COc1cccc(-c2nc(CS(=O)(=O)CC(=O)Nc3ccccc3Br)c(C)o2)c1 | 0.9% | i
Clc1nc2ccccc2cc1-c1nnn(-c2ccccc2Br)n1 | -13.4% | -19.5%
CCN(CC)CCCCN1c2ccccc2Sc2ccccc21 | ? | -28.3%
CC(Sc1nnnn1-c1ccccc1)C(=O)Nc1ccccc1-c1ccccc1 (stereo not drawn) | -20.1% | -2.9%
CCCCn1c(N)c(N(CC(C)C)C(=O)CC2CCCCC2)c(=O)[nH]c1=O | -13.2% | i
O=[N+]([O-])c1ccccc1S(=O)(=O)N1CCN(CC2CC3C=CC2C3)CC1 (stereo not drawn) | -17.3% | -2.4%
O=C(N/N=C/c1ccc(-c2cccc(C(F)(F)F)c2)o1)c1ccccc1O | -8.8% | i
Cc1ccc(SCC(=O)Nc2ccc(N3CCN(C)CC3)c(F)c2)cc1 | -19.8% | ?
O=C(Nc1cc(Cl)ccn1)C1(c2ccccc2)CC1(Cl)Cl (stereo not drawn) | -12.6% | i
O=C(NCCc1ccccc1)C1=COCCO1 | -14.4% | i
S=c1[nH]ccn1-c1ccc(Cl)cc1 | -13.4% | i
NS(=O)(=O)c1ccc(N/N=C/c2ccncc2)cc1 | -3.2% | -19.6%
Cc1nn(-c2ccccc2)c(C)c1NC(=O)COC(=O)c1ccc(NC(=O)CC#N)cc1 | -1.5% | -8.3%
CN(C)CCCNC(CC(=O)Nc1cccc([N+](=O)[O-])c1)C(=O)O (stereo not drawn) | -9.3% | -14.4%
O=C(CNC(=O)c1cccs1)NCC(=O)OCC(=O)c1ccc([N+](=O)[O-])cc1 | -9.3% | -9.9%
O=C(CSc1nnc(-c2ccccc2)o1)NC(=O)Cc1ccccc1 | -9.7% | -5.4%
COc1ccc(CNC(=O)CN(C(=O)c2csnn2)c2cccc3c2CCCC3)cc1 | -15.0% | -12.8%
CC(C)CNC(=O)C1CCN(CC2CCCCC2)CC1 | -4.8% | -3.8%
COc1ccc(NC(=O)c2ccc(-c3ccccc3C(F)(F)F)o2)cc1 | -13.2% | i
CCOc1ccc(CCN2C(=S)N([C@@H](CC(C)C)CN3CCC[C@@H]3CN3C(=S)NC[C@@H]3CC(C)C)C[C@@H]2Cc2ccc(O)cc2)cc1 | -15.4% | 5.4%
O=C(COc1cccc(C(F)(F)F)c1)Nc1ccccc1N1CCCCC1 | -10.9% | -14.4%
CN(Cc1cn[nH]c1-c1ccc2c(c1)OCO2)C1CCOCC1 | -9.7% | -6.3%
COc1ccccc1-n1ccnc(SCC(=O)NCc2ccccc2)c1=O | -13.0% | -19.9%

Compounds above that have an aryl thioether with sulfur outside any ring (11):
SMILES | VACV Venus inh | Vaccinia mCherry
Cc1noc(C)c1CSc1nc2[nH]ncc2c(=O)n1-c1ccccc1 | ? | ?
Cc1ccccc1-n1c(SCC(=O)NC2CC2)nc2ccccc2c1=O | -13.1% | -29.2%
O=C(Nc1cccc(S(=O)(=O)Nc2ccc(SC(F)F)cc2)c1)C1CCC1 | -8.5% | -12.9%
O=C(CSc1nnc(-c2cccnc2)n1-c1ccccc1)Nc1ccccc1 | -5.5% | i
Cc1ccccc1-c1nnc(SCCC(=O)N2CCOCC2)o1 | -9.9% | i
CCOc1ccc(NC(=O)CSc2nc(N)c(-c3ccccc3)c(=O)[nH]2)cc1 | 1.8% | 4.3%
CCSc1nnc(NC(=O)Cc2ccccc2OC)s1 | 17.2% | 12.7%
CC(Sc1nnnn1-c1ccccc1)C(=O)Nc1ccccc1-c1ccccc1 (stereo not drawn) | -20.1% | -2.9%
Cc1ccc(SCC(=O)Nc2ccc(N3CCN(C)CC3)c(F)c2)cc1 | -19.8% | ?
O=C(CSc1nnc(-c2ccccc2)o1)NC(=O)Cc1ccccc1 | -9.7% | -5.4%
COc1ccccc1-n1ccnc(SCC(=O)NCc2ccccc2)c1=O | -13.0% | -19.9%

Compound activity from PubChem.
